# gsp antagonist = gsp mutant antagonism; gsp-mutant cells, cAMP HTRF, 30 min; control for the full effect not named in the record; Potency, µM (series often up to 76.9 µM), for inactives: at the highest dose activity change, negative = inhibition, most hits filed as inhibitors; 0.4% of 340,000 active; AID 624288; active = falling curve of any shape with a large fitted effect; inconclusive = falling curve, mostly with a smaller effect; inactive = flat or rising curve; cell line not stated here;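 note: intracellular cAMP measured with PDE inhibitor Ro 20-1724 present during compound exposure; potency is the fitted concentration of half-maximal effect; % is set by controls: 0 for no effect and ±100 for the full control effect; nearly all actives have a fitted effect of over 65% in size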
#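 HTRF cAMP measurement after 30 min RT detection following 30 min, 37C compound treatment alongside […] (added as 300 uM solution) in G418-selected cells seeded at 2000/well and grown 16–24 h.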
# TRPV1 PAM = human TRPV1 potentiation; potentiation, % at 8.33 µM; Q8NER1; AID 540277; TRPV1-expressing cells, Fluo-8 calcium influx, capsaicin EC20 potentiation; host cell line not named in the record; control for the full effect not named in the record; 0.02% of 320,000 active; active means potentiation above 80%; inconclusive means 30% to 80%; inactive means below 30%; note: 0% is about no effect
# Target sequence (Q8NER1 whole entry, looked up): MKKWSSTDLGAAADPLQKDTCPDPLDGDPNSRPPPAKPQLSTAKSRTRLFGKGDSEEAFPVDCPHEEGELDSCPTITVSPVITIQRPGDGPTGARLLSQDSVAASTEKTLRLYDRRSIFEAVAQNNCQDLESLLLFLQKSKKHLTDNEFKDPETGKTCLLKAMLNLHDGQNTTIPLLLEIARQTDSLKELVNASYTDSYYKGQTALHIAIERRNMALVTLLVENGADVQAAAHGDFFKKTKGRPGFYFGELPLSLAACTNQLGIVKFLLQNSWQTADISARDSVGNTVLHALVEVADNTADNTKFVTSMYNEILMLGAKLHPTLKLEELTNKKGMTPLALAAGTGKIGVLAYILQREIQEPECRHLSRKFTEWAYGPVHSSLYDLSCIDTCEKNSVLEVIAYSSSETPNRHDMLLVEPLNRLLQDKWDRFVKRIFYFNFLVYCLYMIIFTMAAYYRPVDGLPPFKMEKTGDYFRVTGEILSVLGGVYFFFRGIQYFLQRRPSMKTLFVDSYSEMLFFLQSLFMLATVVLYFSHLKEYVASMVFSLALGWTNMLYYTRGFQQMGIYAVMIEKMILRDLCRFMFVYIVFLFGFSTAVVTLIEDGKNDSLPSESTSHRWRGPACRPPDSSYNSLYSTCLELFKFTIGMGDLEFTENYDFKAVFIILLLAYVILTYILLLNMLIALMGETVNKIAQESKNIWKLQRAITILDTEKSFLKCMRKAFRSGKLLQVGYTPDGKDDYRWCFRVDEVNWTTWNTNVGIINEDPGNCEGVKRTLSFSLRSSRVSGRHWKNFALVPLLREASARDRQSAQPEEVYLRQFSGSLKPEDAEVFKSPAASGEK
#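 TRPV1-expressing cells were cultured overnight at 35.5C and loaded with Fluo-8 calcium dye for 40 to 90 min at room temperature. After a 10 s baseline, compound was added and calcium influx was read kinetically for 3 min (ex 480/em 520 nm).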
# Menin MLL FP FL = menin-MLL binding inhibition, fluorescein peptide | Fluorescence polarization, fluorescein-MLL peptide displacement from menin | FP activity change, % at 61.4 µM | 290,000 tested, under 10 active | AID 1766; inconclusive = falling polarisation curve, or a change in total fluorescence; inactive = total fluorescence flat and polarisation flat or rising; no compound was filed as active; the % refers to the polarisation; negative = inhibition;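 note: % of control where 0% means no effect; inhibitors lower the polarisation; unlabelled MLL peptide was the positive control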
# gsp agonist = gsp mutant agonism | gsp mutant cells, cAMP HTRF, 30 min; control for the full effect not named in the record | Potency, µM (titrated, usually from 76.9 µM), for inactives: top-dose activation (cAMP increase), actives largely listed as activators | 0.13% of 340,000 active | AID 624287; active = well fitted activation curve with a large enough effect; inconclusive = small, poorly fitted or top-dose-only effect, or another doubt; inactive = no such curve, though single readings can be large or run the other way; cell line not stated here;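 note: phosphodiesterase inhibitor Ro 20-1724 added with compounds to block cAMP breakdown; potency is the fitted concentration of half-maximal effect; nearly all actives have a fitted effect of over 60% in size; about a fifth of the inactives were tested at one dose only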
#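 Cells in DMEM/10% FBS with G418 were pretreated with compounds in DMSO plus […] (300 uM stock) for 30 min at 37C. cAMP was measured by HTRF (cAMP-d2 plus anti-cAMP antibody-K) after 30 min at room temperature.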
# ClpP mod = qHTS Assay for Activators of ClpP; purified B. subtilis ClpP, FRET peptide cleavage, 20 min; Potency, µM (doses to about 57.5 µM), for inactives: at the top dose activity change, negative = active; 1.9% of 340,000 active; active = well fitted falling curve with a large enough effect; inconclusive = small, poorly fitted or top-dose-only effect; inactive = no such curve, though single readings can be large or run the other way; note: potency is the fitted concentration of half-maximal effect; the source files actives as falling curves though it sought activators and does not explain the sign; nearly all actives have a fitted effect of over 65% in size; many hits overshoot -100%
# Target sequence (P80244 whole entry, looked up): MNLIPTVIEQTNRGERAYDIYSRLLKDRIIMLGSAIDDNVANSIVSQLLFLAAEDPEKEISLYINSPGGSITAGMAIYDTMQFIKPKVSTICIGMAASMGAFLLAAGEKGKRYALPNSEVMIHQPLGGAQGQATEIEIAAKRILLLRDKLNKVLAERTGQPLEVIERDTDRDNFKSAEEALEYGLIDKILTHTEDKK
#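 ClpP 10 microg/mL final, pH 8 Tris/KCl buffer with BSA, glycerol, Tween-20; compound pinned in; FRET-FV substrate; RT 20 min; Ex320/Em430; ΔFRET vs ADEP 5.8 microM, DMSO, no enzyme.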
# Sfp PPTase inh = blocks B. subtilis Sfp PPTase activity; Q9F4F7; Biochemical Sfp PPTase activity, qHTS; Potency, µM, for the others: max response, negative = inhibition, usual class: inhibitors; 3.5% of 310,000 active; AID 1490; active = well fitted inhibition curve with a large enough effect; inconclusive = small, poorly fitted or top-dose-only effect, or another doubt; inactive = no such curve, though single readings can be large or run the other way;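 note: the enzyme is Sfp with the accession as filed and its product quenches rhodamine fluorescence; potency is the fitted concentration of half-maximal effect; 0% = enzyme reaction without inhibitor and -100% = no enzyme wells; top concentration of the series not given in the record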
#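 Sfp 15 nM + cpd, 15 min RT; start w/ rhodamine-CoA 5 uM, BHQ-2-YbbR 12.5 uM (final); 50 mM Hepes pH 7.6, 10 mM MgCl2, 0.01% NP-40, 0.01% BSA; read 525/598 nm at 0 and 30 min.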
# CtBP-E1A inh = blocks the CtBP interaction with E1A; AlphaScreen GST-E1A/His-CtBP binding, 1536-well; hits give low values; control for the full effect not named in the record; activity change, % (test concentration not listed); 0.49% of 340,000 active; AID 651724; in the data active means activity change below about -65%; inconclusive means about -30% to -65%; inactive means above about -30%; note: % is set by controls: 0 for no effect and ±100 for the full control effect; compound concentration not given in the record
#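 AlphaScreen with 125 nM GST-E1A and 125 nM His-CtBP (5X stocks) in Tris pH 8.0, 300 mM NaCl, BSA, Tween 20, TCEP. Compounds preincubated 2 h at 37 deg C, then glutathione donor/nickel acceptor beads added for 1 h at 37 deg C in dark.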
# Starred values were filed as active, the others as inactive; ? = inconclusive; . = not tested or not shown; [ ] = remark or other dose.
SMILES,gsp antagonist,TRPV1 PAM,Menin MLL FP FL,gsp agonist,ClpP mod,Sfp PPTase inh,CtBP-E1A inh
Clc1ccc2nc(-c3ccncc3)cc(-c3ccccc3)c2c1,8%,18,1.1,-1%,-2.5%,10%,1
CN(C)CCCn1c(=O)n(Cc2ccco2)c(=O)c2c3c(sc21)CCCCC3,3%,.,2.1,-4%[15.4 µM],.,20µM*,-14
Cc1ccc(N(CCO)C(=S)Nc2ccccc2)cc1,-7%,10,-0.8,-65%[inhibitor],.,4%,0
Cc1nc(N2CCN(Cc3ccccc3)CC2)nc2c1C(=O)CC(C)C2 (stereo not given),-19%,-9,-0.3,-14%,0.5%,-6%,0
O=C(CC(c1ccccc1)c1ccccc1)Nc1nn[nH]n1,16%,2,-0.6,4%[15.4 µM],.,-18%,-3
Cc1ccc(S(=O)(=O)N2C[C@@H]3[C@H]4CC[C@H](C4)[C@@H]3[C@@H](C)[C@@H]2c2ccn(Cc3ccccc3)c2)cc1,-5%,.,.,.,-1.9%,.,-6
Cc1cccc(Sc2c([N+](=O)[O-])ncn2C)c1,3%,27,1.1,1%,-1.6%,-3%,-8
Nc1cc2c(cc1Cl)N(Cc1ccccc1)C(=O)CO2,0%,30,.,-6%,-3.0%,.,-3
COc1cc(-c2nnc3n2N=C(c2ccccc2)CS3)cc(OC)c1OC,35%,-10,1.3,9%,2.7%,6%,-1
CC(=O)NC(Cc1ccccc1)Cc1ccccc1,1%,-6,-1.1,13%[15.4 µM],-1.9%,-1%,-7
CCCCN(C(=O)c1cc(Cl)nc2ccccc12)c1c(N)n(CCC)c(=O)[nH]c1=O,.,.,.,-36%[inhibitor],-5.3%,.,-23
O=C(NCc1cccnc1)c1ccc(Cl)c(S(=O)(=O)N2CCOCC2)c1,-20%,2,.,-14%,1.4%,14%,0
Cc1cc(=O)oc2cc(OCC(=O)Nc3ccccc3C(=O)O)ccc12,15%,3,.,-24%[15.4 µM],.,1%,-18
COc1ccc(NS(=O)(=O)c2cccs2)cc1S(=O)(=O)N1CCCCC1,-4%,-12,.,-17%,0.9%,.,9
CC(C)[C@H]1C(=O)Nc2ccccc2N1C(=O)N[C@@H](Cc1ccccc1)C(=O)N[C@H](C(=O)O)c1ccccc1,-3%,-8,3.1,10%,0.0%,11%,-8

# Structural class, the compounds so far containing a COOH group (two)
SMILES,gsp antagonist,TRPV1 PAM,Menin MLL FP FL,gsp agonist,ClpP mod,Sfp PPTase inh,CtBP-E1A inh
Cc1cc(=O)oc2cc(OCC(=O)Nc3ccccc3C(=O)O)ccc12,15%,3,.,-24%[15.4 µM],.,1%,-18
CC(C)[C@H]1C(=O)Nc2ccccc2N1C(=O)N[C@@H](Cc1ccccc1)C(=O)N[C@H](C(=O)O)c1ccccc1,-3%,-8,3.1,10%,0.0%,11%,-8

# (listing goes on)
SMILES,gsp antagonist,TRPV1 PAM,Menin MLL FP FL,gsp agonist,ClpP mod,Sfp PPTase inh,CtBP-E1A inh
O=[N+]([O-])c1cc(-c2nc(-c3ccncc3)no2)ccc1Cl,-11%,3,29,5%,?,10%,1
CCCSc1nc2c(cnn2-c2ccccc2)c(=O)[nH]1,-9%,11,3.7,-16%,1.6%,19%,-5
COc1cc(/C=N/Nc2cccc(C)c2)ccc1OC(=O)c1ccco1,10%,1,5.1,-1%[15.4 µM],-2.7%,12%,-2
CC(=O)NC(CC(=O)OCC(=O)Nc1cc(S(=O)(=O)N2CCCCC2)ccc1C)c1ccccc1 (stereo not given),-1%,.,.,-16%,-2.3%,.,-10
Cc1cccc(OC(=O)c2cccnc2)c1C,0%,4,-0.2,-40%[inhibitor],1.1%,17%,.
Cc1ccnc(NS(=O)(=O)c2ccc(N3C(=O)c4ccccc4C3=O)cc2)n1,9%,25,4.2,25µM*,-6.6%,13%,13
CCCCNC(=O)CC1N=C2c3ccccc3N=C(SCC(=O)Nc3ccccc3C)N2C1=O (stereo not given),-1%,-17,1.3,27%,?,10%,2
CN(Cc1nc2ccccc2n1C)S(=O)(=O)c1ccc(Cl)cc1,3%,-2,4.2,?,-2.6%,22%,0
COc1ccc(OC)c(-c2csc(NC(=O)C3COc4ccccc4O3)n2)c1 (stereo not given),-14%,-26,-3.8,-14%,.,15%,-17
COc1ccc2[nH]c(C(=O)NCCCn3ccnc3)cc2c1,11%,9,7.5,4%[15.4 µM],0.4%,3%,0
COc1ccc(CN(C)C(=O)CNC(=O)c2ccc3ccccc3c2)c(OC)c1,3%,9,6.1,-8%[15.4 µM],.,6%,-6
CC(=O)c1sc(Nc2nc3cc4c(cc3s2)OCO4)nc1C,-24%,0,25,13%[15.4 µM],.,?,12
CCOC(=O)CN(C(=O)COC(=O)C1(c2ccccc2)CC1)c1ccc(F)cc1,-23%,-10,.,-20%,2.0%,.,0
CCN1CCN(CCNC(=O)CCCn2nc(C)c3c(C)n(-c4ccc(C)cc4)nc3c2=O)CC1,15%,-7,.,-11%,.,9%,-6
CCCCN(CC)C(=O)CN1C(=O)c2ccccc2C1=O,-20%,-3,2.7,14%,0.9%,13%,-11
O=C(Nc1cc2c3c(c1)CC(=O)N3CCC2)c1ccc(Br)cc1,-7%,-14,.,14%,0.9%,.,3
c1csc(-c2nc(NCC3CCCO3)c3ccccc3n2)c1 (stereo not given),-11%,-15,-0.5,28%,-20%,3%,-10
CS(=O)(=O)N1CCc2cc(C(=O)Nc3ccc(Cl)cc3)ccc21,0%,-9,1.2,-5%,.,21%,0
Cc1cc(C)cc(N(C(C)C(=O)N2CCCCC2)S(C)(=O)=O)c1 (stereo not given),-1%,-4,2.2,-80%[inhibitor],0.1%,-3%,8
C=CCOc1ccc(/C=C/C(=O)OCC(=O)NC(C)c2ccc(F)cc2)cc1 (stereo not given),6%,-7,.,-6%[15.4 µM],.,.,-10
O=C(Nc1ccc2c(c1)OCO2)C1CC(c2c(F)cccc2Cl)=NO1 (stereo not given),-3%,?,0.6,-45%[inhibitor],-0.1%,-15%,6
CC(C)(C)NC(=O)CN(C(=O)c1ccc(Cl)nc1)c1cccc2ccccc12,-2%,-1,0.3,-15%[15.4 µM],.,26%,8
CC(C)(C)NC(=S)NC1CC1,0%,2,3.0,26%[15.4 µM],.,4%,8
CC1CCCCN1C(=S)Nc1ccc(OC(F)F)cc1 (stereo not given),4%,9,-3.2,-33%,-3.2%,11%,1
CCOC(=O)c1cnc(-n2nc(C)cc2C)nc1Nc1ccc(C)cc1,4%,-1,5.2,-38%[inhibitor],-3.9%,2%,-17
Cc1cc(C)nc(NS(=O)(=O)c2ccc(NC(=O)CCCN3C(=O)c4ccccc4C3=O)cc2)n1,-9%,2,0.0,13%,0.0%,0%,7
Nn1c(SCc2nc3ccccc3[nH]2)nnc1C1CCCCC1,-5%,-11,0.1,-27%,-2.7%,10%,4
Nc1cccc2cc(S(=O)(=O)O)ccc12,3%,.,.,14%,.,.,-19
N#Cc1ccc(CN2CCN(C(=O)C3CC(=O)N(c4ccc5c(c4)OCCO5)C3)CC2)cc1 (stereo not given),.,.,.,-207%[inhibitor],-1.0%,.,4
CN1CCN(NC(=S)Nc2ccc(OC(F)F)cc2)CC1,-7%,-2,-0.2,-1%[15.4 µM],.,56µM*,-24
COc1ccc(CCN2CC(C(=O)Nc3ccc(S(C)(=O)=O)cc3)CC2=O)cc1OC (stereo not given),3%,12,.,3%,-4.1%,.,7
CCCCOC(=O)Cn1c(=N)n(CCN2CCOCC2)c2ccccc21,4%,.,.,?,-3.2%,.,-19
O=C(CSc1nnc(CNC(=O)c2cccs2)o1)c1ccccc1,-1%,3,-1.7,-31%[inhibitor],1.7%,-19%,-3
CCC(C)[C@H](NC(=O)NCCCOC(C)C)C(=O)OC (stereo not given in full),16%,26,1.5,6%[15.4 µM],0.4%,16%,4
c1ccc(CSC2=NCCS2)cc1,7%,-10,0.9,16%[15.4 µM],.,-8%,6
Cc1c([N+](=O)[O-])cc(C(=O)N2CCOCC2)cc1[N+](=O)[O-],18%,-6,2.4,-10%,1.5%,4%,7
O=C(c1ccc(-c2ccccc2Cl)o1)N1CCC1,-25%,-21,.,2%[15.4 µM],.,.,0
COc1ccc(CCCc2nnc(SCC(=O)Nc3cc(C)c(C)cc3Br)o2)cc1,?,4,4.1,12%,1.5%,-5%,8
CCC(=O)Nc1ccc(NCc2cccs2)cc1,-8%,-9,-1.6,1%[15.4 µM],-0.9%,7%,4
O=C(Nc1ccc(F)cc1F)NC1CCN(Cc2c(F)cccc2Cl)CC1,-12%,.,-1.7,4%[15.4 µM],.,13%,-1
CC(=O)Oc1ccccc1C1OC(=O)c2ccccc2N1C(C)=O (stereo not given),5%,-3,0.6,-1%,?,18%,8
COc1ccc(-n2c(O)c(C=NC3CC3)c(=O)[nH]c2=O)cc1,3%,-18,1.2,0%,-1.3%,11%,-1
COc1cccc(OC)c1C(=O)N1CCN(Cc2ccccc2C)CC1,11%,13,5.3,-1%,0.4%,-28%,1
O=C(O)CC1S/C(=N\N=C/c2ccccc2)N(c2ccc(O)cc2)C1=O (stereo not given),3%,-6,2.1,10%,-0.1%,14%,1
Cc1cc(NC(=O)/C=C/c2ccc(F)cc2)n(-c2nc3ccccc3[nH]2)n1,7%,-11,3.1,1%[15.4 µM],0.5%,5%,13
O=C(NNC(=S)NCc1ccc(Cl)cc1)c1ccc(Br)o1,-5%,5,13,-13%,-1.0%,3%,.
CCOC(=O)C1=C(CCc2ccccc2)NC(=O)NC1c1ccc(C#N)cc1 (stereo not given),-8%,.,.,5%,-2.2%,.,1
C[C@H](NC(=O)c1[nH]cnc1C(=O)Nc1ccc(Cl)cc1)c1ccccc1,-11%,0,.,.,-6.3%,.,1
COCCN(CCOC)S(=O)(=O)c1ccc(C(=O)Nc2sc3c(c2C(N)=O)CCCCC3)cc1,3%,13,0.3,?,-0.8%,50µM*,2
Cn1c(CCCOc2ccc(Cl)cc2Cl)n[nH]c1=S,-18%,6,-1.9,0%[15.4 µM],15%,2%,6
O=C(/C=C/c1ccccc1Cl)Nc1ccc(-c2nnc3n2CCCCC3)cc1,2%,18,1.4,-2%[15.4 µM],2.0%,1%,-23
COc1ccc(C(=O)NCCN2C(=O)S/C(=C\c3cccnc3)C2=O)c(OC)c1OC,0%,-2,6.1,10%,-0.9%,11%,-2
O=c1c2[nH]c3ccc(F)cc3c2ncn1CCN1CCN(Cc2ccccc2)CC1,5%,11,1.5,22%,-13%,28%,7
